Screening results from PubChem BioAssay.
D2 PAM = human D2 receptor positive allosteric modulation | DiscoveRx D2 beta-arrestin cells, luminescence, 90 min; 100% = 57 uM dopamine signal | potentiation, % (no concentration beside the values) | 360,000 tested, 0.23% active | P14416; active = potentiation of 50% or more; inconclusive = 30% to 50%; inactive = 30% or less;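 further: compound concentration not given in the record; tested on top of an EC20 dose of dopamine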
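D2 cells co-treated with compound plus 50 nM dopamine (EC20) for 90 min at 37 deg C to detect potentiation. Beta-arrestin recruitment was read as enzyme-fragment luminescence after 1 h at ambient temperature. Full response was set by 57 uM dopamine.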
CtBP-E1A inh = CtBP/E1A binding inhibition; AlphaScreen GST-E1A/His-CtBP binding, 1536-well; active compounds read low; control for the full effect not named in the record; 340,000 tested, 0.49% active; activity change, % (no concentration beside the values); in the data active means activity change below about -65%; inconclusive means about -30% to -65%; inactive means above about -30%; further: on the % scale 0 is the no-effect control and ±100 the full control effect
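GST-E1A and His-tagged CtBP (125 nM each as 5X stock) were preincubated with pin-transferred compound for 2 h at 37 °C in the dark, then glutathione donor and nickel acceptor beads were added for 1 h before AlphaScreen reading.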
Six1-Eya2 blk = inhibitors of human Six1/Eya2 interaction. AID 651725. AlphaScreen GST-Six1/His-Eya2 binding, biochemical; active compounds read low; control for the full effect not named in the record. activity change, % (concentration not given with the values). Q15475+O00167. 360,000 tested, 0.56% active; in the data active = activity change below about -65%; inconclusive = about -30% to -65%; inactive = above about -30%; further: on the % scale 0 is the no-effect control and ±100 the full control effect
Target sequence (O00167 whole entry, looked up): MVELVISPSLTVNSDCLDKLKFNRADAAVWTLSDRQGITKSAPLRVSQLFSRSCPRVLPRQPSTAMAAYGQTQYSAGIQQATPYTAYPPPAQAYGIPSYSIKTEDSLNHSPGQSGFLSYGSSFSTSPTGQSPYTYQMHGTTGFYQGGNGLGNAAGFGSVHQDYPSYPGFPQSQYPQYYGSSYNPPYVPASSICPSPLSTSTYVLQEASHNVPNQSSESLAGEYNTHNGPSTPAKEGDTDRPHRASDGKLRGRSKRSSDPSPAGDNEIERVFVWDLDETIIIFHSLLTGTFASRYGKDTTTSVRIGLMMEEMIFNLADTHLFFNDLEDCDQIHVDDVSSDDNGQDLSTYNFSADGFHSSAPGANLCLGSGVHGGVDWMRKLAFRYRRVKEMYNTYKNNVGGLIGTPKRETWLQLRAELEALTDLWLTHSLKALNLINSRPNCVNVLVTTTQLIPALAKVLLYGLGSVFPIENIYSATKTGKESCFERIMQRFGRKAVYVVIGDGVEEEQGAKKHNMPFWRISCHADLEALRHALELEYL
Target sequence (Q15475 whole entry, looked up): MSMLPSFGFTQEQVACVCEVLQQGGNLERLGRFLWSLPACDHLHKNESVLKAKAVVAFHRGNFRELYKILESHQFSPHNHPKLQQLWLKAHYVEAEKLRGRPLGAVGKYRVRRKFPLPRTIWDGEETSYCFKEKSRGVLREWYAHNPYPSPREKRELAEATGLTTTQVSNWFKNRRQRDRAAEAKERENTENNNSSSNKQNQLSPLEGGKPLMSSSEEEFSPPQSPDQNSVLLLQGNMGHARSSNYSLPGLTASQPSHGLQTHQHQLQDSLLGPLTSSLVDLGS
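Compounds are tested against tagged Six1 and Eya2 proteins bridged by glutathione donor and nickel acceptor beads; after a one-hour incubation at 37 °C without light, AlphaScreen emission is recorded.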
gsp antag = antagonizes gsp, the McCune-Albright syndrome mutation. gsp-mutant cells, cAMP HTRF, 30 min; control for the full effect not named in the record. Potency, µM (doses to about 76.9 µM), inactives show top-dose activity change, negative = inhibition, actives largely listed as inhibitors. 340,000 tested, 0.4% active. AID 624288; active = falling curve of any shape with a large fitted effect; inconclusive = falling curve, mostly with a smaller effect; inactive = flat or rising curve; cell line not stated here;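 further: intracellular cAMP measured with PDE inhibitor Ro 20-1724 present during compound exposure; potency means the concentration at half of the fitted maximal effect; on the % scale 0 is the no-effect control and ±100 the full control effect; nearly all actives have a fitted effect of over 65% in size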
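HTRF cAMP read-out (cAMP-d2 plus anti-cAMP antibody-K in lysis buffer, 30 min RT). Before lysis, cells are exposed to compounds with […] for 30 min at 37C in DPBS containing Ca/Mg, BSA and Tween 20.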
D2 agonist = agonists of human D2 dopamine receptor (beta-arrestin) | activation, % (concentration not given with the values) | DiscoveRx PathHunter D2 beta-arrestin, luminescence, 90 min; 100% = 57 uM dopamine signal | 360,000 tested, 0.084% active | P14416; in the data active = activation above about 40%; inconclusive = about 15% to 40%; inactive = below about 15%; further: compound concentration not given in the record; the text of the record calls up to 30% inactive
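Agonist mode: compounds alone added to overnight-plated D2 PathHunter cells for 90 min at 37 C, with 57 uM final dopamine (EC100) defining full response. Beta-arrestin recruitment detected by chemiluminescent reagent, read after 1 h at ambient temperature.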
gsp agonist = gsp mutant agonism; Potency, µM (top dose mostly 76.9 µM), without a hit: at the top dose activation (cAMP increase), actives largely listed as activators; 340,000 tested, 0.13% active; gsp mutant cells, cAMP HTRF, 30 min; control for the full effect not named in the record; active = well fitted activation curve with a large enough effect; inconclusive = small, poorly fitted or top-dose-only effect, or another doubt; inactive = no such curve, though single readings can be large or run the other way; cell line not stated here;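 further: phosphodiesterase inhibitor Ro 20-1724 added with compounds to block cAMP breakdown; potency means the concentration at half of the fitted maximal effect; nearly all actives have a fitted effect of over 60% in size; about a fifth of the inactives were tested at one dose only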
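Cells stably selected in G418 were plated at 2000/well, grown 16-24 hr, then given compounds in DMSO with the PDE inhibitor […] (300 uM solution added) for 30 min at 37C; cAMP was read by HTRF.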
* hit, by the source's call; ? = inconclusive; . = no result given; [ ] = dose if it differs, or a comment.

D2 PAM,CtBP-E1A inh,Six1-Eya2 blk,gsp antag,D2 agonist,gsp agonist,SMILES
7,-7,0,0%,-1.8,18%,Cc1cccc(OCCNc2nc3c(c(=O)n(C)c(=O)n3C)n2C)c1
-11,.,2,-11%,-0.1,1%,CC[n+]1ccccc1/C=C/Nc1ccccc1
-4,2,5,11%,-3.8,12%,CC(=O)NC(=O)NC1CSCC1OC(C)=O (stereo not drawn)
-6,-5,-10,.,-7.1,.,O=C(NCCO)c1cccc(-c2cnc3cccnn23)c1
-5,-3,9,19%,-1.5,-18%,Cc1ccc(NC(=O)COC(=O)C(CC(C)C)N2C(=O)C3CC=CCC3C2=O)c(C)c1 (stereo not drawn)
-7,1,-2,-17%,6.2,-6%,CC(=O)c1c(C)nc(-c2ccc(OCC(=O)Nc3ccccc3)cc2)n1O
16,-7,-3,-16%,1.1,-18%[15.4 µM],Cc1oc2c(c(C)cc3oc(=O)c(CC(=O)N[C@@H](CC(C)C)C(=O)O)c(C)c32)c1C
8,-10,-3,?,0.2,?,C#CCOc1ccc2c3c(c(=O)oc2c1)CCCC3
-13,-7,-14,-25%,-6.5,-6%[15.4 µM],COc1ccc(-c2ccc(/C=C(\NC(=O)c3ccccc3)C(=O)N3CCOCC3)o2)cc1
?,1,9,-9%,-0.7,0%[15.4 µM],O=C(c1ccc([N+](=O)[O-])s1)N1CCc2ccccc21
-5,-24,-2,11%,2.1,5%[15.4 µM],COc1ccc(NC(=O)C2CC(=O)N/C(=N/N=C/c3ccccc3)S2)cc1 (stereo not drawn)
-3,3,-4,5%,-6.5,-38%[inhibitor],Cc1cc(C(=O)CN2CC(C)OC(C)C2)c(C)n1-c1ccccc1 (stereo not drawn)
-4,-7,0,6%,-2.2,1%,CCOC(=O)CSC1=C(C#N)C(=O)NC(c2ccc(OC)c(OC)c2)S1 (stereo not drawn)
0,8,4,10%,-2.7,-30%,CC(=O)Nc1ccc(S(=O)(=O)N2CCN(C(=O)N3CCOCC3)CC2)cc1
-3,5,-3,9%,10,1%,Cc1[nH]n(-c2ccccc2)c(=O)c1N=Nc1ccc(C#N)cc1
-7,0,0,-11%,-3.6,-2%,COCCN(C(C)=O)c1nnc(-c2cnccn2)s1
-6,-9,0,4%,-2.4,-6%[15.4 µM],O=C(CSc1nc(-c2ccccc2)cc(=O)[nH]1)NCc1ccc2c(c1)OCO2
-5,-8,-12,.,-5.4,.,CNc1cncc(-c2c(OC)cccc2OC)n1
-7,-11,1,8%,-2.7,-6%,COc1ccccc1Nc1nc(N)nc(CSc2nncn2C)n1
-19,-15,-14,1%,-4.0,?,O=C(/C=C/c1ccco1)NC(=S)Nc1cc(-c2nc3ccccc3s2)ccc1Cl
-15,-3,1,5%,-5.0,.,CCCCN1CCNC[C@H]1Cc1ccc(O)cc1
-5,2,-6,-5%,2.5,-11%[15.4 µM],Cc1nc2ccccc2c(=O)n1/N=C/c1ccccc1OC(F)F
1,0,3,13%,-2.8,17%,COc1ccc(-n2cnnc2SCC(=O)Nc2ccc(N3CCOCC3)cc2)cc1
-20,-16,-20,-16%,-10.0,7%[15.4 µM],NNc1nc2c(Cl)c(Cl)ccc2s1
0,-4,-3,-1%,-5.8,-2%[15.4 µM],COc1cccc(C(=O)NCC2CCCN2S(=O)(=O)c2ccccc2)c1 (stereo not drawn)
7,4,-12,11%,-6.1,10%,S=C(Nc1ccccc1)Nc1nc2ccccc2n1CCOc1ccc(Br)cc1
0,-21,6,-3%,2.6,3%[15.4 µM],COc1ccc(-c2nc3ncccc3n2O)cc1
-28,1,9,.,-1.5,-7%,CN(C)C(CNC(=O)C1CC(=O)N(c2cccc(C(F)(F)F)c2)C1)c1ccccc1 (stereo not drawn)
-7,6,-25,-5%,-4.0,-3%[15.4 µM],COc1ccc2c(c1)[nH]c1c(=O)n(/N=C/c3ccc(OC)c(COc4ccccn4)c3)cnc12
-1,-4,-5,-29%,-3.2,1%[15.4 µM],CSC1=N/C(=C\c2ccc(Cl)cc2)C(=O)N1N(C)C
7,0,24,-1%,0.3,-26%,Cc1nc2ccc(S(=O)(=O)NC(C(=O)Nc3nccs3)C(C)C)cc2s1 (stereo not drawn)
-5,-5,-6,2%,0.1,-30%[inhibitor],CCN(CC)c1ccc(CNc2nnnn2C)cc1
-24,-6,4,2%,-0.9,13%[15.4 µM],CN(C)/C=C/C(=O)c1ccc(C(F)(F)F)cc1F
-10,11,-12,7%,-6.5,-25%,O=C(O)c1cc(C(=O)O)cc(N2C(=O)CSC2=S)c1
14,-2,-3,-4%,1.1,16%,C/C(Cc1ccccc1)=N\NC(=O)c1cccnc1
0,4,0,1%,-3.9,-2%,CCC1(CC(C)C)SC(N)=NC1=O (stereo not drawn)
0,1,2,15%,4.4,3%,NS(=O)(=O)c1ccc(CCNC(=O)CNC(=O)c2ccccc2Br)cc1
-10,-2,0,5%,5.6,17%,Cc1cc(=O)oc(C)c1C(=O)NCCCN1CCN(c2ccccc2F)CC1
-4,3,6,5%,0.4,49%,COc1ccc(NC(=O)CCNC(=O)c2ccco2)c(OC)c1
1,?,?,.,3.1,.,CC(=O)Nc1ccc(NC(=O)c2ccc(-c3c(C)noc3C)c3ccoc23)cc1
-23,7,8,35%[activator],-4.4,24%,Cc1nn(-c2ccc(F)cc2)c2nc(N)c(C#N)c(-c3cccs3)c12
-8,-2,4,5%,-3.7,-2%,O=c1c2ccccc2nc2n1C(CSc1ccc(F)cc1)CS2 (stereo not drawn)
0,9,-5,8%,3.4,1%[15.4 µM],O=C(COC(=O)C1CC2CCCC(C1)C2=O)NNC(=O)c1ccc([N+](=O)[O-])cc1 (stereo not drawn)
-12,14,8,-5%,3.6,.,COc1ccc(-c2cc(=O)oc3cc(OC(C)C(=O)NC4CC4)ccc23)cc1 (stereo not drawn)
-34,0,6,-3%,0.3,7%,COC(=O)c1[nH]c2ccc(C)cc2c1NC(=O)C1=COCCO1
-24,5,1,15%,0.0,-36%[inhibitor],CCN(CC)CCNC(=O)c1ccc(CS(=O)(=O)c2ccccc2C)o1
-5,-17,-1,-18%,-3.0,-31%[inhibitor],O=c1cc(O)nc(SCc2ccccc2)n1-c1ccc(Cl)cc1
3,.,-1,-3%,-2.2,13%,COc1ccc(Cl)cc1S(=O)(=O)N1CCC(O)(c2ccc(Cl)cc2)CC1
-12,9,7,-10%,-1.5,15%,CN1CCN(C(=O)c2ccccc2NC(=O)c2cccc(Cl)c2)CC1
-4,1,6,15%,8.8,12%,O=C(NCC(c1ccco1)N1CCCC1)c1cc(=O)[nH]c2ccccc12 (stereo not drawn)
25,0,-5,7%,7.9,2%,COc1ccc(/C(N)=N/OC(=O)c2cccc([N+](=O)[O-])c2)cc1
-11,-20,-12,-25%,-1.3,4%[15.4 µM],COc1ccccc1C(=O)NC(CCSC)C(=O)N1CCC(Cc2ccccc2)CC1 (stereo not drawn)
-5,18,0,-45%,-3.6,16%[15.4 µM],Cc1nccn1CCCNCc1c(C(=O)N2CCCCCCC2)nc2ccc(Cl)cn12
14,11,10,-22%,-2.0,1%,CCOc1ccc2nc(SCC(=O)c3ccc(C)s3)sc2c1
15,10,23,-12%,0.5,?,O=C1Cc2ccccc2C(=O)N1Cc1ccccc1
-13,-1,0,-7%,-2.6,-15%,COc1ccccc1NC(=O)CSc1nc(O)cc(=O)[nH]1
-16,4,0,5%,-1.9,-21%,O=C(c1cc2ccccc2o1)n1nnc2ccccc21
5,-19,0,-5%,-5.2,-14%[15.4 µM],COC(=O)Nc1ccc(Cn2cc(C(F)(F)F)ccc2=O)cc1
8,8,3,-2%,-0.9,0%,CCCCn1c(=N)n(CC(=O)c2ccco2)c2ccccc21
-18,10,4,-5%,-1.3,16%,C=CCOC(=O)/C(=C\c1cccc2ccccc12)NC(=O)c1ccccc1

Laid out differently: results already given.
> O=C(NCC(c1ccco1)N1CCCC1)c1cc(=O)[nH]c2ccccc12 (stereo not drawn)
- D2 PAM: -4
- CtBP-E1A inh: 1
- Six1-Eya2 blk: 6
- gsp antag: 15%
- D2 agonist: 8.8
- gsp agonist: 12%

> COc1ccc(/C(N)=N/OC(=O)c2cccc([N+](=O)[O-])c2)cc1
- D2 PAM: 25
- CtBP-E1A inh: 0
- Six1-Eya2 blk: -5
- gsp antag: 7%
- D2 agonist: 7.9
- gsp agonist: 2%

> COc1ccccc1C(=O)NC(CCSC)C(=O)N1CCC(Cc2ccccc2)CC1 (stereo not drawn)
- D2 PAM: -11
- CtBP-E1A inh: -20
- Six1-Eya2 blk: -12
- gsp antag: -25%
- D2 agonist: -1.3
- gsp agonist: 4%[15.4 µM]

> Cc1nccn1CCCNCc1c(C(=O)N2CCCCCCC2)nc2ccc(Cl)cn12
- D2 PAM: -5
- CtBP-E1A inh: 18
- Six1-Eya2 blk: 0
- gsp antag: -45%
- D2 agonist: -3.6
- gsp agonist: 16%[15.4 µM]

Carrying on.
D2 PAM,CtBP-E1A inh,Six1-Eya2 blk,gsp antag,D2 agonist,gsp agonist,SMILES
-15,-1,-7,9%,0.1,-14%,O=C1CCN(CCCc2ccccc2)CCN1[C@H](CO)c1ccccc1
12,-2,-3,2%,5.4,-28%,Clc1ccc(Nc2ccc(-n3ccnc3)nn2)cc1Cl
-6,1,-1,-16%,-0.7,?,CCOC(=O)c1c(-c2ccc(Cl)cc2)csc1NC(=O)CNCc1ccco1
-3,-1,8,6%,1.8,2%[15.4 µM],COc1cc(OC)cc(N2C(=O)CC(N3CCC(C(=O)N4CCCCC4)CC3)C2=O)c1 (stereo not drawn)
-20,3,0,-2%,-4.7,-25%,CN1CCN(Cn2cc(/C=C/C(=O)c3ccccc3)c3ccccc32)CC1
-6,2,8,-2%,-5.0,4%,O=C(CN(C(=O)c1csnn1)c1ccccc1C(F)(F)F)NCc1ccccc1
-5,5,5,12%,-4.6,-1%[15.4 µM],O=C(CNC(=S)N(Cc1ccccc1)Cc1cccnc1)NC1CC1
-8,5,2,0%,-9.8,?,COCCCN1C(=O)c2ccc(C(=O)N3CCN(c4ccc(OC)cc4)CC3)cc2C1=O
-4,5,9,.,-4.8,.,COCCCN1C(=O)C(CC(=O)NCCCCc2ccccc2)CC(C(=O)N(C(C)C)C(C)C)=C1C (stereo not drawn)
-5,-5,0,?,-0.7,-8%,O=C(N/N=C1\CCCc2c1[nH]c1ccc(Cl)cc21)c1ccncc1
